Screens deposited in PubChem BioAssay by several laboratories.
eIF4H inh = inhibitors of RNA binding by human eIF4H; Q15056; AID 2012; eIF4H fluorescence polarization binding assay; 290,000 tested, 0.94% active; inhibition, % at 35 µM;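 active means 50% or more with normal probe brightness, or confirmed in later tests; inconclusive means above 50% with abnormal brightness, or retests that disagree; inactive means below 50% or failed in later tests; about a fifth of its hits are not listed in these tables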;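 further: calls also rest on retests at 20 µM and on dose response follow-up; 0% = protein and probe with vehicle and 100% = probe without protein; strong numbers were not always called active; many hits fall short of the cut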
Rce1 inhib = yeast Ras-converting enzyme inhibition; Q03530; yeast membranes, quenched prenylated peptide cleavage fluorescence; calls only; 290,000 tested, 0.27% active; AID 2563;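 active means fall in fluorescence gain of 50% or more versus controls, with final raw signal at or below 3038400; inconclusive means same 50% fall but final raw signal above 3038400; inactive means fall in fluorescence gain under 50%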;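 further: plate controls were neutral control wells for no effect and wells lacking membranes for full effect; tested at 10 µM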
Target sequence (Q03530 whole entry, looked up): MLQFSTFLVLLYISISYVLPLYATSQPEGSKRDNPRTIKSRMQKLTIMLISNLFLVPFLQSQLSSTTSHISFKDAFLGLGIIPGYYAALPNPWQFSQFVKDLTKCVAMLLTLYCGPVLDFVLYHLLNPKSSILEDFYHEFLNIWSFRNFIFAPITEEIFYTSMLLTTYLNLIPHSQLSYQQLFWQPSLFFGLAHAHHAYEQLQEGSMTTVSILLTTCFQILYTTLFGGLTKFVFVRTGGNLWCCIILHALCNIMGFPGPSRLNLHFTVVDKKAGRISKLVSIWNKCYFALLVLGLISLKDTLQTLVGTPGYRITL
CSC inhib = cancer stem cell inhibition; cancer stem cell-like cells viability, luminescence; inhibition, % at 7.5 µM; 300,000 tested, 1.1% active; AID 2717;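 active means mean at 75% or more and at least half the replicates too; inconclusive means mean and replicates disagree; tested in HMLE shEcad cells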;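 further: 0% = median of negative and 100% = median of positive control wells; the first replicate is given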
PABP polyA inh = PABP-poly(A) binding inhibition; PABP-poly(A) RNA binding, fluorescence polarization; inhibition, % at 35 µM; 290,000 tested, 1% active; AID 2014;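 active means 50% or more with normal probe brightness, or confirmed in later tests; inconclusive means above 50% with abnormal brightness, or retests that disagree; inactive means below 50% or failed in later tests; about a fifth of its hits are not listed in these tables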;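 further: calls also rest on retests at 20 µM and on dose response follow-up; controls were probe without protein and protein plus probe with vehicle; some compounds called inactive have numbers as strong as hits; many hits fall short of the cut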
Target sequence (P11940 whole entry, looked up): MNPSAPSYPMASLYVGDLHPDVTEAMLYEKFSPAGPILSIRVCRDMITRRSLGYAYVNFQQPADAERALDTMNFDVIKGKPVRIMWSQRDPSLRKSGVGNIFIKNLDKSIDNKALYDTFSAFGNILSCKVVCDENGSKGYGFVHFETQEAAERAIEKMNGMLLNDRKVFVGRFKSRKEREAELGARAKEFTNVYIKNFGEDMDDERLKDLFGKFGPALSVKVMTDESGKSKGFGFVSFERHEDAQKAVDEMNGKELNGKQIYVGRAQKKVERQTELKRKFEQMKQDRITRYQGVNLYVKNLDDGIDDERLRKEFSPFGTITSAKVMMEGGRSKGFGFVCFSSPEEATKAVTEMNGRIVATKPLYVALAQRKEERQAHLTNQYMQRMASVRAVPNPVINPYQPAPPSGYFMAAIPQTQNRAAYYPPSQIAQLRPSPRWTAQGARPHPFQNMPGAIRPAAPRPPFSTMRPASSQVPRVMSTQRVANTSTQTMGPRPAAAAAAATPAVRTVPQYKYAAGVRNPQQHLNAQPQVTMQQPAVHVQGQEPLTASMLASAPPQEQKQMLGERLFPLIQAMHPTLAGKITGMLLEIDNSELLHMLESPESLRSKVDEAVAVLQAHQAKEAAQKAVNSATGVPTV
Env fusion inh = HIV envelope-mediated fusion inhibition. AID 651610. 360,000 tested, 1.1% active. inhibition, % at 12.3 µM. HeLa-JRFL Env/CEM21 cell fusion, luciferase;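 active means mean replicate inhibition score of at least 50 and every replicate individually at or above 50; inconclusive means only one of the two criteria met; inactive means mean below 50 and not all replicates reaching 50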;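 further: 0% = plate neutral controls and 100% = maraviroc near 300 nM; one replicate is shown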
MT1-MMP act inh = blocks activation of human MT1-MMP; P50281; HT1080 RFP-PRO-GFP cells, GFP/RFP ratio fluorescence, overnight; percent of plate control window, DMSO zero; GFP/RFP ratio change, % at 20 µM; 360,000 tested, 0.061% active;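 active means GFP/RFP ratio change of at least 30% with cell ATP level not reduced by more than half and red fluorescence within 50% of control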; further: strong numbers were not always called active
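Material: RFP-PRO-GFP reporter HT1080 cells. Dosing: single-point 20 µM compound, 1% DMSO. Controls: DMSO and RFP-L50D-GFP cell wells. Timing: cells overnight before dosing, compound overnight, 37 °C, 5% CO2. Measure: GFP/RFP fluorescence ratio.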
UUG fidelity = modulators of start codon recognition fidelity in yeast; S. cerevisiae UUG-firefly luciferase reporter, luminescence/redox ratio; activity score, % at 18.7 µM; 350,000 tested, 0.13% active;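 active means replicate mean at a twofold rise or more, about +100% in these data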;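 further: firefly luciferase made from a UUG start codon reports start codon fidelity; reporter light over untreated wells divided by growth signal over untreated wells; some hits fall short of that in this replicate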
MT1-MMP act inh RFP = further read-out of MT1-MMP act inh, marked with its call; RFP signal change, %; measured here: RFP expression control read;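 0 = vehicle wells; hits needed this value within 50% of zero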
The depositor's hits bear a star; i = inactive; u = inconclusive; x = no result given; + = active, no number. Random draw from the library. About 3% of those tested had a hit in this group.

canonical_smiles	eIF4H inh	Rce1 inhib	CSC inhib	PABP polyA inh	Env fusion inh	MT1-MMP act inh	MT1-MMP act inh RFP	UUG fidelity
COc1ccc(OC)c(N(CC(=O)NCc2ccccc2)S(=O)(=O)c2ccc(OC)c(OC)c2)c1	3	i	-4	5	-25	x	x	-20
Cc1ccc(SCC(=O)Nc2nccs2)cc1	1	i	3	1	-35	3	8	1
COc1ccc(NS(=O)(=O)c2cccc(C(=O)NNC(=O)CNC(=O)c3ccccc3)c2)cc1	-9	i	3	-8	-13	1	1	-1
CCC(=O)N(CCC(Cc1ccccc1)c1ccc2c(c1)OCO2)Cc1ccccc1F (stereo unspecified)	-1	i	44	-3	25	-19	-13	-17
COc1cccc(/C=N/NC(=O)CCn2cnc3ccccc32)c1	-8	i	-10	3	0	2	0	-7
CCOc1cc(C2C(C#N)=C(N)OC(C)=C2C(C)=O)cc(Br)c1O (stereo unspecified)	u	i	-8	u	-72	-52	6	x
CCCCN(C(=O)C1CC(=O)N(c2ccc3c(c2)OCCO3)C1)c1c(N)n(CC(C)C)c(=O)[nH]c1=O (stereo unspecified)	x	x	x	x	3	1	-5	-8
O=C(Oc1cc(-c2ccccc2)no1)c1cccc(C(F)(F)F)c1	3	i	-15	11	x	1	5	-16
O=C(COc1ccccc1N1C(=O)C2C3C=CC(C3)C2C1=O)c1ccccc1 (stereo unspecified)	-6	i	-12	3	1	0	-1	x
COc1cc(/C=C/C(=O)N(C)CC(=O)Nc2ccccc2Br)cc2c1OCCO2	x	x	x	x	-2	-3	-4	-16
O=C(Nc1cccnc1)OCc1ccccc1	-11	i	-12	-3	3	-1	-1	-17
CCNc1cc2oc(=O)c(CN3CCOCC3)c(C)c2cc1C	u	x	52	u	x	-3	-3	-13

(listing goes on)
canonical_smiles	eIF4H inh	Rce1 inhib	CSC inhib	PABP polyA inh	Env fusion inh	MT1-MMP act inh	MT1-MMP act inh RFP	UUG fidelity
Cc1ccccc1NS(=O)(=O)c1ccc(OCC(=O)NCc2ccco2)cc1	-1	i	-3	4	x	-8	0	-17
Cc1cccc(N2C(=O)N3[C@@H]4c5ccccc5OC[C@@H]4[C@@H](c4ccccc4)[C@@]3(C)C2=O)c1	-14	i	-3	-12	-11	1	-3	-10
COc1cccc(CNC(=O)CCC(=O)N2CCSc3ccccc32)c1OC	0	i	-6	-15	-20	3	-2	11
CCN1CCC(O)(C#Cc2ccccc2)CC1	-1	i	0	-9	2	3	-3	-8
C[C@@H](NC(=O)[C@@H]1Cc2ccccc2CN1)C(=O)Nc1ccc2c(c1)OCCO2	6	i	-4	4	0	-1	5	-23
CCN1CCN(c2nc3c(c(=O)[nH]c(=O)n3C)n2Cc2ccccc2)CC1	-4	i	-4	8	-5	-1	3	-14
Cc1nc(SCc2ccccc2)n[nH]1	-10	i	-12	3	-2	0	-10	-10
O=C(O)CSc1nnc(-c2ccco2)o1	-6	i	-11	-4	-29	-5	4	-9
CC(C)(C)N(Cc1ccccc1)C(=O)COC(=O)c1ccc(S(=O)(=O)N2CCOCC2)cc1	x	x	x	x	-24	0	-3	-14
O=S(=O)(Nc1nccs1)c1ccc(F)cc1	-6	i	-10	5	13	-1	6	x
CSc1ccccc1NC(=O)CN(C)CC(=O)Nc1cc(C)ccc1C	-18	i	x	3	-7	3	5	x
O=C(COc1ccc(/C=N/NC(=O)C(=O)N2CCCCCC2)cc1)Nc1ccccc1Cl	17	i	1	-3	x	-3	-10	-6

Additional results:
canonical_smiles	eIF4H inh	Rce1 inhib	CSC inhib	PABP polyA inh	Env fusion inh	MT1-MMP act inh	MT1-MMP act inh RFP	UUG fidelity
Cc1ccc(CN(C(=O)c2csnn2)C(C(=O)NC2CCCC2)c2ccco2)cc1 (stereo unspecified)	-6	x	2	3	33	-2	4	-4
CCc1cc[n+](CC(=O)Nc2ccc(Cl)cc2Cl)cc1	5	i	-7	-2	18	-2	4	x
CCCN(C(=O)CSc1nc2cc(S(=O)(=O)N(CC)CC)ccc2o1)C1CCS(=O)(=O)C1 (stereo unspecified)	x	i	2	x	4	14	-2	24
O=C(CN1CCCC1)Nc1ccc(-c2nc3cc(NC(=O)CN4CCCC4)ccc3o2)cc1	14	u	20	47	-145	4	0	-13
Cc1cc(N2C(=O)C(O)=C(C(=O)c3ccc(C)o3)C2c2cccs2)no1 (stereo unspecified)	6	i	-8	21	x	-1	0	-19
COc1ccc(N2C(=O)C(CN3CCN(C)CC3)C2c2ccccc2)cc1 (stereo unspecified)	-3	i	-11	-7	10	-12	-3	x
Cc1nc(C#N)c(N/N=C/c2cccc(Cl)c2)o1	-8	i	20	-6	-107	0	4	-8
COP(=O)(/C=C/c1ccccc1)C(O)c1ccc(F)cc1 (stereo unspecified)	-1	i	-9	-4	x	-1	0	-14
COc1cc(/C=N/n2cnnc2)ccc1OC(=O)c1ccco1	-7	i	-6	-8	1	2	2	x
Cc1cc(C)c(C)c(S(=O)(=O)N[C@@H](C)C(=O)OC(C)C(=O)NC(N)=O)c1C (stereo partly specified)	-4	i	-6	-4	-5	0	1	x
COc1ccc(-c2c(C(F)(F)F)nn(C)c2NC(=O)CSCC(=O)O)cc1	-5	i	-3	0	7	-1	4	-10
CC(OC(=O)c1cccc(Cl)c1)C(=O)NC1CCCCC1C (stereo unspecified)	-11	i	-26	0	x	4	-3	-12

Additional compounds:
canonical_smiles	eIF4H inh	Rce1 inhib	CSC inhib	PABP polyA inh	Env fusion inh	MT1-MMP act inh	MT1-MMP act inh RFP	UUG fidelity
Cn1c(SCCOc2ccccc2F)nc2ccccc2c1=O	2	i	14	-12	10	0	-7	x
O=S(=O)(c1ccc(Cl)s1)N1CCC(Cc2ccccc2)CC1	-4	i	16	-8	11	1	0	-9
O=C(O)COc1ccccc1/C=N/NC(=O)c1cc(-c2ccc(Cl)cc2)nc2ccccc12	2	i	34	32	-26	4	3	1
Cc1ccc(NS(=O)(=O)c2c(C)[nH]c(C)c2C(=O)N2CCCCC2)c(Br)c1	-6	i	-6	-2	2	-3	0	11
CCN1/C(=C2\C(=O)N(C)C(=S)N2C)C=Cc2cc(C)ccc21	13	i	-17	-1	x	0	1	-11
COc1ccc(NC(=O)CCC(=O)N2CCOCC2)c([N+](=O)[O-])c1	-3	i	-4	5	-60	4	5	-10
CCOc1ccc(OCC)c(NC(=O)CN2CCN(CC)CC2)c1	7	i	6	3	x	2	-2	-18
Cc1cccc(N2CCN(C(=O)CNC(=O)c3ccccc3)CC2)c1C	-9	i	-9	-2	31	-2	-19	4
CCN1CCN(C(=O)c2cn(CC)c3ccc(S(=O)(=O)N(C)C)cc3c2=O)CC1	6	i	-12	-14	-7	2	9	1
CCOC(=O)C1=C(C)c2ccccc2N(C(=O)OC)C1(C)C(=O)OCC (stereo unspecified)	x	x	x	x	15	1	1	-1
O=C(c1ccc(N2CCN(C(=O)c3ccccc3Br)CC2)cc1)c1cccc(F)c1	9	i	41	-1	19	0	-21	-6
O=C(CNS(=O)(=O)c1ccc(F)cc1)N1CCOCC1	1	i	x	2	5	1	2	-16

(listing goes on)
canonical_smiles	eIF4H inh	Rce1 inhib	CSC inhib	PABP polyA inh	Env fusion inh	MT1-MMP act inh	MT1-MMP act inh RFP	UUG fidelity
Cc1ccc(-c2[nH]nc(N)c2N=Nc2cccc(Cl)c2C)cc1	-6	x	x	0	-81	6	-4	-5
COc1cccc(C2=NN(C(C)=O)C(c3cccs3)C2)c1 (stereo unspecified)	0	i	-1	-1	-110	0	-2	-7
CCC(/C=N/NC(=O)CCCCC(=O)N/N=C/C(CC)CC)CC	7	i	0	2	12	4	9	-25
C/C=C\C=C\C(=O)N1CC2(CC(c3cccc(NC(=O)CC(c4ccccc4)c4ccccc4)c3)=NO2)C[C@H]1C(N)=O (stereo partly specified)	7	i	-5	-5	x	1	-2	-2
Cc1ccc(S(=O)(=O)NCC(=O)NCC(=O)OCc2c(F)cccc2Cl)cc1	1	i	-15	0	7	7	5	-16
O=C(Nc1ccc2c(c1)OCCO2)c1cc(-c2ccccn2)nc2ccc(Br)cc12	2	i	-3	11	14	3	2	-24
Cc1ccc(OCc2cc(C(=O)N(C)Cc3cnn(-c4ccccc4C)c3)no2)cn1	4	i	0	-12	-11	2	-27	2
Cc1sc2ncnc(Nc3ccc(O)cc3)c2c1C	-7	i	-7	-3	7	2	1	-15
COCCCNC(=O)c1cc(C(=O)Cc2ccccc2)c[nH]1	-12	i	-6	-2	-15	2	-1	x
O=C(c1ccc2c(c1)OCO2)N1CCC2(CC1)Oc1ccc(F)cc1C(=O)C21CC(c2ccccc2)=NO1 (stereo unspecified)	2	i	5	0	-40	-8	-5	-20
CCOc1ccccc1OCCn1nnc2ccccc21	0	i	-3	-4	-45	-3	-4	-9
CCOC(=O)C(/C(N)=N/C(=O)Nc1ccccc1)=C(\C)O	-2	i	-6	-2	x	-2	1	-27

Going on with the list.
canonical_smiles	eIF4H inh	Rce1 inhib	CSC inhib	PABP polyA inh	Env fusion inh	MT1-MMP act inh	MT1-MMP act inh RFP	UUG fidelity
COc1ccc(CCNC(=O)C2CC(c3ccccc3C(F)(F)F)=NO2)cc1 (stereo unspecified)	-13	i	-1	-3	10	9	0	7
Cc1c(Cl)cccc1NC(=O)CSc1nnnn1C	x	x	-9	x	5	1	2	-2
CCOc1ccc(NC(=O)CN(C)C(=O)CCC2CCCCC2)cc1OCC	x	x	-7	x	6	1	2	-4
COc1cccc(/C=C/C(=O)c2ccc[nH]2)c1	-11	i	4	-5	-129	-3	-6	-11
C/C(CC(=O)Nc1cccc2c1CCCC2)=N\NC(=O)COc1ccccc1	-8	i	x	-9	x	3	2	-11
CCCOc1ccc(CSCCNC(=S)Nc2ccccc2)cc1	0	i	77*	-4	x	4	-18	x
CS(=O)(=O)N(CC(=O)N1CCc2ccccc2C1)c1ccccc1Br	-4	i	3	-3	-18	-3	2	-7
Cc1c(C(=O)N2CCCCCC2)nnn1-c1nonc1N	2	i	5	3	x	2	6	-7
Cc1cc(Nc2nn(C)c(N)c2C#N)ccc1F	-1	x	-1	4	-7	-4	2	-10
O=C(CN(C(=O)c1csnn1)c1ccc(F)c(Cl)c1)NCc1ccccc1	-16	i	-9	14	-4	-1	0	-3
O=C(O)CCCC(=O)Nc1nncs1	-7	i	-10	-6	-5	0	0	-14
Cc1ccc(CC(=O)NC2CCN(Cc3ccccc3)CC2)cc1	6	i	-2	0	-60	-2	1	-16

Next part:
canonical_smiles	eIF4H inh	Rce1 inhib	CSC inhib	PABP polyA inh	Env fusion inh	MT1-MMP act inh	MT1-MMP act inh RFP	UUG fidelity
O=C(OCc1ccccc1)N1CCC2CC1c1cc(N3CCCCC3)ccc12 (stereo unspecified)	x	x	x	x	-11	1	-5	-4
O=C(Cn1cncn1)NCCC(c1ccccc1)c1ccccc1	-2	i	-10	12	11	1	7	-20
Nc1nonc1C(=O)N/N=C/c1ccc(Br)o1	-8	i	6	-5	11	1	4	x
CC(OC(=O)c1ccncc1)C(=O)Nc1cccc(Cl)c1 (stereo unspecified)	5	i	-5	-7	x	3	4	x
COc1cc(OC)cc(N2CCN(S(=O)(=O)c3ccc(-n4cnnn4)cc3)CC2)c1	-10	i	1	-2	-3	1	4	1
CC(=O)c1c(C)nc(-c2ccccc2)nc1N	-7	+	x	-8	-38	1	6	2
CCC(=O)c1ccc(OCC(O)CN2CCN(c3ccc(F)cc3)CC2)cc1 (stereo unspecified)	-11	i	2	-11	12	0	1	-20
CCOc1c2ccoc2nc2c(OC)c(OC)ccc12	2	i	-10	0	x	0	1	-16
CNc1oc(Cc2ccccc2)nc1S(=O)(=O)c1ccc(Cl)cc1	-6	i	-1	-4	x	0	0	-29
